CBX7 AlphaScr: CBX7 chromodomain binding inhibitors, primary screen, biochemical, AlphaScreen. hit rate 1.1% among 66,000. AID 1224903, 2016. normalised signal (fraction of DMSO) (no concentration beside the values). Chromobox protein homolog 7 (Homo sapiens), O95931. AlphaScreen His6-CBX7 / biotin-H3K27me3 peptide binding; stronger effect = lower value; in the data active = normalised signal below about 0.5;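 note: 100 nL library stock added to about 20 µL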
Target sequence (O95931 whole entry, looked up): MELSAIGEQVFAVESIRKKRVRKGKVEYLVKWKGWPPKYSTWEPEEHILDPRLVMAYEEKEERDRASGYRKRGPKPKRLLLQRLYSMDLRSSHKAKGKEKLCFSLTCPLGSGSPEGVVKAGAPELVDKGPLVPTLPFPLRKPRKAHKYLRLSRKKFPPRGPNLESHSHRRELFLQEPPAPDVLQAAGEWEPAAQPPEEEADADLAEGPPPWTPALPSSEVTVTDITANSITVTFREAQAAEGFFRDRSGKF
CBX7 AlphaScr z-score: recorded beside CBX7 AlphaScr, whose call it bears; z-score; measured here: z-score of CBX7 signal; some inactives read as strong as hits; reference of the scale not given here;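 same signal on another scale; lower means less binding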
* hit, by the source's call. Some of the compounds tested. The share of hits here may be higher or lower than overall.

Each structure is followed by: CBX7 AlphaScr, CBX7 AlphaScr z-score
COc1ccc(C(=O)Nc2cccc(-c3nc4ncccc4o3)c2)cc1OC
  1, 0.59
CCc1ccc(NC(=O)CN(C)S(=O)(=O)c2ccc3nc(C)sc3c2)cc1
  1.4, 2.6
Cc1ccc(NC(=O)CN2C(=O)CSc3ncccc32)cc1
  1, 0.009
CCn1c(SCC(=O)NCCc2ccc(OC)c(OC)c2)nnc1-c1c[nH]c2ccccc12
  1, 0.058
Cc1cccc(C)c1NC(=O)CSCc1cnn(-c2ccccc2)c1-n1cccc1
  1, 0.13
Cc1cccc(N2CCN(C(=O)CCc3c(C)nc4ncnn4c3C)CC2C)c1 (centres undefined)
  0.95, -1.1
CCC(C(=O)NCCCOC(C)C)n1ncc2ccccc21 (centres undefined)
  0.96, -1.1
CCOc1ccc(NS(=O)(=O)c2ccc3[nH]cc(C(=O)NCCOC)c(=O)c3c2)cc1
  0.91, -1.6
CCOc1ccc(CC(=O)Nc2c(C(=O)Nc3ccccc3)oc3ccccc23)cc1OCC
  1, 1.6
CCOc1ccc(CCNC(=O)C2CCN(S(C)(=O)=O)CC2)cc1OCC
  1.1, 1.3
CC1c2nc3ccccc3n2C(CC(=O)N2CCOCC2)C(=O)N1Cc1ccccc1 (centres undefined)
  0.91, -1.5
CC(C)OCCCNC(=O)c1nnc(Cc2ccc(Cl)cc2)o1
  1, -0.056
COc1ccc(CCNC(=O)CC2Nc3ccccc3NC2=O)cc1OC (centres undefined)
  1, 1.4
Cc1cc(Nc2ccc(F)c(Cl)c2)n2ncnc2n1
  1.1, 1.5
CCN(CCNC(=O)CN1CCN(Cc2ccc(Cl)cc2)C1=O)c1ccccc1
  0.85, -2.1
COc1ccc2nc(NC(=O)C3CCCN(S(=O)(=O)c4c(C)noc4C)C3)sc2c1 (centres undefined)
  1, -0.035
O=C(Nc1ccc2c(c1)OCO2)c1cn(-c2ccc(Cl)cc2)c(=O)c2ccccc12
  0.9, -3.3
COc1ccc(CNC(=O)c2ccc(CNS(=O)(=O)c3ccc(OC)cc3)cc2)cc1
  1.4, 1.7
COc1cccc(C(=O)Nc2c3c(nn2-c2ccc(Cl)cc2)CSC3)c1
  0.94, -1.5
Cc1ccccc1C(=O)Nc1cccc(Oc2ccc3c(c2)C(=O)N(c2ccccc2)C3=O)c1
  0.98, -0.66
Cc1[nH]c2ccccc2c1C(=O)CNC1=NCCS1
  1.1, 1.5
Cc1ccc(-n2c3c(cc(C(=O)Nc4ccccc4F)c2=O)C(=O)CC(C)(C)C3)cc1
  1.2, 0.8
COc1ccc(C(=O)CSc2nnc(Cc3cc(=O)[nH]c(=O)[nH]3)n2-c2ccc(Cl)cc2)cc1
  1, -0.074
CC(C)N(Cc1nc(-c2ccc(Cl)cc2)no1)C(=O)COc1ccccc1
  0.91, -0.85
CCOc1ccc(-c2nnc(Nc3ccc(O)cc3)c3ccccc23)cc1
  1, 0.094
CSc1oc(-c2ccc(F)cc2)nc1S(=O)(=O)c1ccc(Cl)cc1
  1.1, 2.5
Cc1ccc2c(C)c(C(=O)N(Cc3ccc(Cl)cc3)C3CCS(=O)(=O)C3)oc2c1 (centres undefined)
  0.67, -3.6
COc1ccc(-c2nc(SCC(=O)Nc3ccc(F)cc3)c(-c3ccc(C)cc3)[nH]2)cc1OC
  0.92, -3.9
COc1ccc(-c2nn(C)c(=O)c3ccccc23)cc1CNC(=O)c1ccc(Cl)cc1
  0.96, -0.58
COCCCNC(=O)c1cc(=O)[nH]c2ccc(S(=O)(=O)N3CCCCCC3)cc12
  1.1, 1.3

Three structures from above, arranged by SMILES length, ascending.
Each structure is followed by: CBX7 AlphaScr, CBX7 AlphaScr z-score
CCOc1ccc(-c2nnc(Nc3ccc(O)cc3)c3ccccc23)cc1
  1, 0.094
CSc1oc(-c2ccc(F)cc2)nc1S(=O)(=O)c1ccc(Cl)cc1
  1.1, 2.5
O=C(Nc1ccc2c(c1)OCO2)c1cn(-c2ccc(Cl)cc2)c(=O)c2ccccc12
  0.9, -3.3

By substructure, those above containing a furan ring, fused or not (two)
Each structure is followed by: CBX7 AlphaScr, CBX7 AlphaScr z-score
CCOc1ccc(CC(=O)Nc2c(C(=O)Nc3ccccc3)oc3ccccc23)cc1OCC
  1, 1.6
Cc1ccc2c(C)c(C(=O)N(Cc3ccc(Cl)cc3)C3CCS(=O)(=O)C3)oc2c1 (centres undefined)
  0.67, -3.6

Continuation:
Each structure is followed by: CBX7 AlphaScr, CBX7 AlphaScr z-score
Cc1sc2nc(-c3cccs3)[nH]c(=O)c2c1C
  1.1, 0.74
COc1ccc(CCNC(=O)c2cccc3c2C(=O)N(Cc2cccnc2)C3)cc1OC
  1, 0.017
O=C(NCc1ccccc1)c1cc(-c2ccncc2)nc2ccccc12
  0.96, -0.43
Cc1ccc(-c2ccc(=O)n(CC(=O)NCCCN3CCOCC3)n2)cc1
  1, 0.38
CCOc1ccc2nc(NC(=O)c3cc(OC)c(OC)c(OC)c3)sc2c1
  1, 0.42
COc1ccc(C(=O)NCCCc2nc3ccccc3n2Cc2cc(C)ccc2C)cc1OC
  1, 0.054
CC(c1ccccn1)N(C(=O)Nc1ccc(Cl)cc1)C1CCCCC1 (centres undefined)
  0.86, -0.14
Cc1onc(-c2ccccc2Cl)c1C(=O)Nc1ccc(C(=O)Nc2ccccc2)cc1
  1.1, 1.6
COc1ccc(C(=O)Nc2ccc(Cl)c(-c3nc4cc(C)cc(C)c4o3)c2)cc1
  1.2, 1.9
CCN(CC)C(=O)Cn1cnc2sc(C(=O)Nc3cccc(Cl)c3C)c(C)c2c1=O
  0.98, -0.69
COc1cccc(CNC(=O)c2ccc3c(c2)ncn3C2CCCCC2)c1
  1, 0.86
COc1ccc(OC)c(NC(=O)C2CCCN2S(=O)(=O)c2cccc3cccnc23)c1 (centres undefined)
  0.8, -6.6
O=S(=O)(Nc1ccc(F)cc1F)c1cccnc1
  1, 0.67
COC(CN(C)S(=O)(=O)c1ccc2c(c1)CCN2C(=O)C1CC1)OC
  0.83, -0.67
O=C(O)CCCC(=O)N1CCN(c2nc(-c3ccccc3)c3ccccc3n2)CC1
  1.1, 1.1
COc1ccc2nc(N3CCCC(C(=O)NC4CC4)C3)sc2c1 (centres undefined)
  1, 0.59
COc1ccc(OC)c(NC(=O)Cn2cc(S(=O)(=O)c3ccc(F)cc3)c(=O)c3ccccc32)c1
  0.92, -2.5
O=C(c1cc(-c2ccncc2)nc2ccccc12)N1CCN(c2cccc(C(F)(F)F)c2)CC1
  0.94, -0.71
O=S(=O)(Nc1nc2ccccc2nc1Nc1ccc(Br)cc1)c1ccc(Cl)cc1
  0.85, -2.7
Cc1ccc(NC(=O)CC2Nc3ccccc3N(CC(=O)Nc3cccc(Cl)c3)C2=O)cc1 (centres undefined)
  1.1, 2
Cc1ccccc1N1C(=O)c2ccc(C(=O)Nc3ccccc3C(=O)O)cc2C1=O
  0.95, -1.4
CCCN1Cc2cccc(C(=O)NCc3ccccc3OC)c2C1=O
  0.99, -0.015
Cc1c(C(=O)Nc2c(F)cccc2F)sc2ncn(CC(=O)N3CCCCC3)c(=O)c12
  1, 0.17
CCCOc1ccc(N2CC(C(=O)NCCc3ccc(OC)c(OC)c3)CC2=O)cc1 (centres undefined)
  0.93, -0.09
Cc1ccc(S(=O)(=O)N2CC=C(C(=O)NCc3ccc4c(c3)OCO4)CC2)cc1
  1.1, 1.3
COc1ccccc1-c1cc2nc(C)c(CCC(=O)NCC(OC)OC)c(C)n2n1
  0.85, -2.5
CCCCNC(=O)NC1=NN=C2N=C(C)C=C(C)C21 (centres undefined)
  1, 0.81
CCOCCCNC(=O)CN1C(=O)COc2ccc(S(=O)(=O)N3CC(C)CC(C)C3)cc21 (centres undefined)
  1.1, 1.5
CCC(Cc1ccccc1)NC(=O)CN1C(=O)COc2ccc(S(=O)(=O)N3CCCCCC3)cc21 (centres undefined)
  1.1, 0.26
Cc1cc2nc(-c3ccc(NC(=O)c4ccccc4)cc3)oc2cc1C
  1.5, 2.2
Cc1ccccc1-n1c(-c2ccccc2F)nc2c(cnn2-c2ccccc2)c1=O
  0.88, -4.7
COc1ccccc1-c1cc(C(F)(F)F)nc(NCCc2ccccc2)n1
  1.6, 4.8
CC(=O)Nc1ccc(Nc2nc(-c3c(C)nc4ncccn34)cs2)cc1
  1, 0.02
O=C(Nc1nnc(N2CCCCC2)s1)Nc1ccccc1Cl
  0.93, -1.9
Cc1cc(NC(=O)c2ocnc2C)ccc1Br
  0.96, -1
O=C(CSc1ncnc2nc[nH]c12)NCCc1ccccc1
  0.97, -0.85
COc1ccc(-n2cnc3cc(NC(=O)c4ccc(C)cc4)ccc32)cc1
  0.81, -0.52
CCOC(=O)C1CCN(C(=O)c2ccc(Cl)c(NC3=NC4CS(=O)(=O)CC4S3)c2)CC1 (centres undefined)
  1.2, 1.9
Nc1c(-c2nc(-c3ccccc3)cs2)c2ccccn2c1C(=O)c1ccccc1
  0.92, -0.95
O=C(Nc1ccc(OC(F)(F)F)cc1)c1c(O)c2ccccc2[nH]c1=O
  0.84, -2.1
CCCC1=Nc2cc(C(=O)NCCOC)ccc2Sc2ccc(C)cc21
  0.76, -3.4
Cc1ccc(-c2nc(NC(=O)c3cccc(C)c3)sc2-c2ccccc2)cc1
  0.94, -1.4
Cc1cc2cc(CCNC(=O)c3ccc4c(c3)OCO4)c(=O)[nH]c2cc1C
  0.91, -1.1
O=C(CSc1nnnn1-c1ccccc1F)Nc1ccccc1F
  1.4, 2.4
CCC1Oc2ccccc2N(CC(=O)NCCN2CCOCC2)C1=O (centres undefined)
  0.81, -2.1
CCCCn1c(C2CC(=O)N(c3c(C)cc(C)cc3C)C2)nc2ccccc21 (centres undefined)
  0.92, -0.51
CC(C)(Oc1ccc(Cl)cc1)C(=O)Nc1c(-c2ccc(F)cc2)nc2ccccn12
  1.2, 2
Cn1c(C(=O)N2CCC(C(=O)NCc3ccccn3)CC2)cc2sccc21
  1, 1.1
Cc1ccc(-c2csc(Nc3ccc(S(N)(=O)=O)cc3)n2)cc1
  0.85, -1.5
Cc1ccccc1NC(=O)CCn1nc(-c2ccccc2)c2ccccc2c1=O
  1, 0.62
Cc1onc(-c2ccccc2Cl)c1-c1nc(-c2ccncc2)no1
  0.98, -0.44
CNCC(=O)Nc1c2c(nc3c1CCC3)CCCC2
  0.49*, -6.9*
O=C(CCCCn1c(=O)[nH]c2ccccc2c1=O)NCCc1ccccc1Cl
  1.1, 0.17
Cc1cccc(NC(=O)c2c(-c3c(Cl)cccc3Cl)noc2C)n1
  0.99, -0.15
COc1ccccc1Nc1nc(-c2ccccc2)c(C)s1
  0.99, -0.32
CCCNC(=O)Cn1cnc2sc(C(=O)NCC3CCCN3CC)c(C)c2c1=O (centres undefined)
  1, 1.1
C=CCn1c(SCC(=O)Nc2c(C)cc(C)cc2C)nnc1-c1cccnc1
  1.2, 2.1
Cc1ccc(S(=O)(=O)C2(C(=O)N3CCC(Cc4ccccc4)CC3)CC2)cc1
  0.89, -5.4
CCC(C(=O)NC1CCCC1)n1c(SCc2ccccc2F)nc2ccncc21 (centres undefined)
  1.1, 1.9
CCOCCCNC(=O)c1ccc2c(c1)ncn2-c1cc(C)ccc1OC
  1.2, 1.8

Retrieved by compound from above (2):
Each structure is followed by: CBX7 AlphaScr, CBX7 AlphaScr z-score
Cn1c(C(=O)N2CCC(C(=O)NCc3ccccn3)CC2)cc2sccc21
  1, 1.1
COc1ccc(C(=O)CSc2nnc(Cc3cc(=O)[nH]c(=O)[nH]3)n2-c2ccc(Cl)cc2)cc1
  1, -0.074

(list continues)
Each structure is followed by: CBX7 AlphaScr, CBX7 AlphaScr z-score
COCCNC(=O)C1CCC(=O)N1Cc1ccccc1Cl (centres undefined)
  1, 0.85
COC(=O)c1sccc1NC(=O)Cn1nc(Cc2ccncc2)c2ccccc2c1=O
  1, 0.45
COc1ccc(Nc2nc(-c3sc(N)nc3C)cs2)cc1
  0.31*, -14*
CCOC(=O)N1CCN(c2ccc3nnc(C)n3n2)CC1
  0.96, -0.97
CC(Sc1nnc(-c2ccccc2)n1-c1ccccc1)C(=O)O (centres undefined)
  1.1, 0.51
COc1ccc(NC(=O)Cn2ncc3c2-c2ccccc2OC3)cc1Cl
  0.82, -2.6
COc1ccc(-c2cc(C(=O)Nc3cnn(Cc4ccc(F)cc4)c3)no2)cc1
  0.98, -0.52
Cc1c(-c2ccccc2)[nH]n2c(=O)c3c(nc12)CCC3
  0.97, -0.55
CCC(Cc1ccccc1)NC(=O)C1CCCN(C(=O)c2cnn(-c3ccccc3)c2-n2cccc2)C1 (centres undefined)
  0.98, -0.92
COc1ccc(N(C)C(=O)Cn2ncc3c2-c2ccccc2OC3)cc1
  0.96, -1.2
COc1ccccc1-n1cc(-c2ccc(C)cc2)nc1S(=O)(=O)CC(=O)Nc1ccc(C)cc1
  0.64, -0.63
CCc1ccc(NC(=O)Nc2cc3sccc3n2C)cc1
  0.97, -1.2
CCC(C)NC(=O)c1ccc(NC2=NC3CS(=O)(=O)CC3S2)cc1 (centres undefined)
  1.1, 0.95
CC(C)c1ccc(NC(=O)C(c2ccc3c(c2)OCO3)N2CCCCC2)cc1 (centres undefined)
  0.86, -0.9
CN1C2CCC1CC(N(CCc1ccccc1)C(=O)c1ccc(F)cc1)C2 (centres undefined)
  1, -0.084
Cc1[nH]c2ccccc2c1CCNS(=O)(=O)c1ccc(Cl)c(Cl)c1
  0.85, -2.3
COc1ccc(N2C(=O)CCC(C(=O)Nc3ccc(F)cc3F)C2c2ccc(F)cc2)cc1 (centres undefined)
  1.2, 2.5
Cc1ccccc1NC(=O)Cn1cc(S(=O)(=O)c2ccc(Cl)cc2)c(=O)c2ccccc21
  0.92, -1.1
Cc1ccc(-n2cc(-c3ccccc3)c3c(NCC4CCCO4)ncnc32)cc1 (centres undefined)
  1, 0.19
O=C(c1ccccc1Cl)N1CCN(c2nnc(-c3ccccc3)c3ccccc23)CC1
  0.97, -1.1
c1cc2nncn2nc1N1CCCCC1
  0.96, -0.54

Source: PubChem
